Screening data (PubChem)
Bead autofluor – counter-screen for toxin protease inhibitors: compound fluorescence; fluorescence intensity (concentration not given with the values); compound autofluorescence counterscreen, microsphere flow cytometry; stronger effect = higher value; 3.1% of 360,000 active;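 active = at least 3 SD above the mean of all compounds, about 16000 in these data; inconclusive = too few beads counted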;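 also: 100 nL of 1 mM stock went into each well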
RN4220 kill – growth inhibition of S. aureus RN4220, primary screen, OD600; 16 h; inhibition, % (test concentration not listed); 0.33% of 330,000 active; AID 1259311, 2017;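 active = z-score of -3 or lower and OD600 up to 0.18 on both plates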;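 also: plate controls were untreated cells for no effect and reference antibiotic for full effect; stock transfer was 100 nL into about 80 µL; one replicate is shown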
PrP 5UTR inh – inhibition of PrP 5' UTR reporter expression; AID 488862, 2010; cell-based PrP 5' UTR mRNA reporter, plate reader; 0.35% of 340,000 active; inhibition, % (no concentration beside the values);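 active = every replicate at 50% or more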;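 also: 0 = median of the neutral control wells; tested in H4 reporter cells; numbers are from one replicate; inactives centre near -14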
BJeLR viability – MLPCN primary cell-based screen for lethality selective to Ras in HRASV12 cells; BJeLR (HRASV12) viability, CellTiter-Glo ATP luminescence, 48 h; reference of the scale not given here; inhibition, % (no concentration beside the values); 0.17% of 300,000 active;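 active = replicate mean above 50%; inconclusive = above 50% but judged a plate artefact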;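 also: 50 nL library stock added to about 25 µL; numbers are from one replicate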
ugtP null kill – growth inhibition of ugtP-null S. aureus, primary screen, RN4220 ugtP deletion, OD600 | 16 h; some inactives read as strong as hits | growth inhibition, % (no concentration beside the values) | 0.54% of 330,000 active | AID 1259309, 2017;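 active = z-score under -3 and OD600 up to 0.15 on both plates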;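 also: plate controls were untreated wells for no effect and antibiotic for full effect; wells of about 80 µL received 100 nL stock; the first replicate is given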
Mtb hypoxia inh – PubChem AID 1159583. fluorescence inhibition, % (no concentration beside the values). 0.1% of 300,000 active. M. tuberculosis hypoxia-regulated fluorescent reporter, fluorescence;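 active = 35 to 45% if threefold the growth effect, above 45% if 1.5-fold the growth effect; inactive = the rest, general growth blockers included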;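 also: wells of about 50 µL received 100 nL stock; 0% = vehicle wells and 100% = reference inhibitor wells; whole bacteria with a GFP reporter of the hypoxia response; strong numbers were not always called active; many hits fall short of the cut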
Mtb hypoxia inh growth – also measured in Mtb hypoxia inh; calls as there; growth inhibition, %; measured here: M. tuberculosis growth (absorbance);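 0% = vehicle and 100% = reference antibiotic; read after six days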
* marks the source's active call; other numbers are inactive results; ? = inconclusive; . = no result given. No enrichment for hits. About 3.9% of those tested had a hit in this group.

SMILES	Bead autofluor	RN4220 kill	PrP 5UTR inh	BJeLR viability	ugtP null kill	Mtb hypoxia inh	Mtb hypoxia inh growth
O=C1CC(C(=O)Nc2cc(Cl)ccc2Cl)n2ncnc2N1 (stereo not given)	4389	.	78*	-3	.	.	.
CNC(=S)N(CCc1c(C)[nH]c2ccc(C)cc12)Cc1cccs1	4206	11	-1	6	8	3	7
COC(=O)c1cccc([N+](=O)[O-])c1CN1CCCC(C(N)=O)C1 (stereo not given)	4525	14	-29	-11	5	-3	8
CC1CC(C)CN(c2nc3c(c(=O)n(C)c(=O)n3C)n2C)C1 (stereo not given)	6121	6.5	1	-5	-9	-7	11
CCCCC(C(=O)NC(C)(C)C)N(Cc1ccccc1)C(=O)c1snc(C(N)=O)c1N (stereo not given)	3460	0.7	-27	-3	15	14	6
O=S(=O)(c1ccccc1)N1CCN(Cc2cccc(Cl)c2)CC1	2648	-1.3	-34	.	17	.	.
COC(=O)c1c(C(=O)OC)c(-c2cccc(F)c2)n2c1CS(=O)(=O)C2	3964	4.5	-21	-8	5	13	0
COc1ccc(C2(NC(C)=O)CCN(Cc3cccnc3)CC2)cc1	4274	5.4	-23	10	13	12	1
O=[N+]([O-])c1cc(S(=O)(=O)N2CCCC2)ccc1N/N=C/c1cccnc1	1963	.	2	-8	.	.	.
CCCN(CC1CC1)C(=O)CSc1nnc(-c2cc(-c3cccs3)nc3ccccc23)o1	2811	9.0	-27	11	-19	-2	2
COc1cccc(CN2CCN(C3CCN(c4ccccc4F)CC3)CC2CCO)c1 (stereo not given)	3385	5.8	4	11	1	-7	-4
Cc1cc(Cl)ccc1OCC(=O)OCC(=O)Nc1ccc(F)c([N+](=O)[O-])c1	2302	7.1	-29	.	-12	14	6
CCOc1cc(NC(=S)NCCc2ccccc2)c(OCC)cc1NC(C)=O	2945	3.2	-16	8	7	8	0
O=C(CSc1ccccc1)N1CCN(c2ccc(F)cc2)CC1	4323	3.0	-2	-2	9	25	20
COc1ccccc1C(=O)NC(=O)CSc1nnc(SC)s1	6804	1.8	-18	-1	0	9	2
CCOC(=O)CN1C(=O)NC(c2ccccc2)C(C(C)=O)C1C (stereo not given)	.	4.6	.	.	0	4	12
COC(=O)c1ccccc1NC(=O)C1CCC(=O)N1S(=O)(=O)c1ccc(C)cc1 (stereo not given)	16363*	3.1	-11	-1	-2	-1	6
COc1ccc(S(=O)(=O)NCc2ccc(C(=O)N3CCN(Cc4ccccc4)CC3)cc2)cc1	4561	0.4	3	8	3	-2	-1
S=C(c1ccc(-c2ccc(Cl)cc2Cl)o1)N1CCCC1	.	5.7	.	-2	8	2	11
Cc1cc(Cl)ccc1OCCCC(=O)NCc1ccccn1	4720	-0.4	-23	5	7	-1	0
CCC(C)[C@H](NC(=O)N1c2ccccc2NC(=O)[C@@H]1C(C)C)C(=O)N[C@@H](Cc1ccccc1)C(=O)O (stereo not given in full)	3915	2.0	-16	-7	-2	.	.
COc1ccc(CCNC(=O)COC(=O)Cn2cnc3ccccc32)cc1OC	4330	5.3	-10	5	5	14	2
O=C(Cn1cnnn1)NC1CCCN(Cc2ccccc2F)C1 (stereo not given)	6526	4.5	-11	6	7	7	-2
Cc1ccc(CN2CCN(Cc3ccc4cccc(F)c4n3)CC2CCO)cc1 (stereo not given)	4659	-2.3	-9	-6	1	2	12
O=c1[nH]c(CN2CC=C(c3ccccc3)CC2)nc2cc(C(F)(F)F)ccc12	3955	-12	11	0	-10	0	15
CCn1c(COc2ccccc2C)nc2ccccc21	2718	.	-46	9	.	.	.
CC(C)NC(=O)N1CCCN(c2nc3ccc(Cl)cc3s2)CC1	6520	1.6	-30	12	-7	-7	1
O=C(CSc1nnc(NC(=O)c2ccc(S(=O)(=O)N3CCOCC3)cc2)s1)Nc1ccccc1C(F)(F)F	7011	.	-6	-8	.	.	.
O=C(Nc1ccc2c(c1)OCCO2)c1cc2sccc2n1Cc1ccc(F)cc1	4385	-8.4	-28	-2	41	.	.
CCN(C(=O)COC(=O)c1ccc(O)cc1)c1cccc2ccccc12	4038	-0.6	7	.	2	5	2
COc1ccc(CNS(=O)(=O)c2ccc(N3CCCC3)cc2Br)cc1	3920	7.3	-16	.	3	-3	6
C=CCOc1cccc(CNCc2cccnc2)c1	.	3.9	-15	15	12	6	-4
COc1ccc(C(=O)N2CCSCC2)cc1OC1CCN(C(C)=O)CC1	4488	4.9	-14	-1	15	-1	-5
COc1cccc2cc(C(=O)Nc3cc(Cl)ccc3N3CCOCC3)c(=O)oc12	2927	-0.2	-13	-15	5	5	-3
Cc1nn(-c2ccccc2)c(N2CCCC2)c1/C=N/NC(=S)Nc1ccccc1C(F)(F)F	2613	.	0	-7	.	.	.
O=C(c1ccccc1-n1cccn1)N1CCc2c([nH]c3ccccc23)C1c1ccccn1 (stereo not given)	4384	5.8	-25	2	-4	1	6
CC(=NNC(=O)c1cccs1)c1ccc2ccccc2c1	.	-5.0	.	.	-2	-3	3
CC(=O)Nc1ccc(NC(=O)CSc2nnc(COc3ccccc3C)n2CC2CCCO2)cc1 (stereo not given)	3371	0.5	-4	-5	-5	-5	12
Clc1cccc(C=NNc2ncnc3ccccc23)c1	.	1.9	.	.	-6	4	10
COc1ccc(/C=C(/C#N)C(=O)Nc2cccnc2)cc1OC	2661	3.2	4	9	7	2	8
CCOc1ccc(Br)cc1C(=O)NN=Cc1ccccn1	.	2.9	.	.	3	1	7
Cc1nn(-c2ccc([N+](=O)[O-])cc2)c2c1C(c1ccc(OC(F)F)cc1)N1C(=N2)C(=O)Nc2ccccc21 (stereo not given)	4618	.	48	-2	.	.	.
O=C(Nn1c(-c2ccc(Br)cc2)nc2ccccc2c1=O)c1ccncc1	2173	3.5	-28	2	4	4	-14
COc1ccccc1C(=O)Nc1ccnn1C1CCN(Cc2ccn[nH]2)CC1	4996	-0.7	-29	8	6	3	-4
O=C(Nc1c2c(nn1-c1cccc(Cl)c1)CS(=O)(=O)C2)c1ccc2c(c1)OCO2	4297	2.0	-4	-2	2	2	-9

Structures above that contain two or more sulfur atoms, in the order listed:
SMILES	Bead autofluor	RN4220 kill	PrP 5UTR inh	BJeLR viability	ugtP null kill	Mtb hypoxia inh	Mtb hypoxia inh growth
CNC(=S)N(CCc1c(C)[nH]c2ccc(C)cc12)Cc1cccs1	4206	11	-1	6	8	3	7
CCCN(CC1CC1)C(=O)CSc1nnc(-c2cc(-c3cccs3)nc3ccccc23)o1	2811	9.0	-27	11	-19	-2	2
COc1ccccc1C(=O)NC(=O)CSc1nnc(SC)s1	6804	1.8	-18	-1	0	9	2
O=C(CSc1nnc(NC(=O)c2ccc(S(=O)(=O)N3CCOCC3)cc2)s1)Nc1ccccc1C(F)(F)F	7011	.	-6	-8	.	.	.

Other records.
SMILES	Bead autofluor	RN4220 kill	PrP 5UTR inh	BJeLR viability	ugtP null kill	Mtb hypoxia inh	Mtb hypoxia inh growth
Cc1c(C(=O)C(=O)NCCCn2ccnc2)c2ccccc2n1C	3862	5.0	-22	-1	15	14	6
COc1ccc(OC)c(N(C(=O)c2ccco2)C(C(=O)NC2CCCC2)c2ccc(N3CCOCC3)cc2)c1 (stereo not given)	3824	1.3	-12	2	0	3	1
C=CCOc1cccc(C(=O)N(C)C2CCCN(Cc3ccccc3F)C2)c1 (stereo not given)	4125	.	-12	-12	.	.	.
COC(=O)CSc1nnc(COc2ccc3ccccc3c2)o1	4227	6.5	-30	-5	9	19	8
O=C1c2ccccc2-c2nc3ccccc3nc21	10014	11	-65	-8	2	10	9
O=C(NC(=S)N1CCN(c2ccc(Cl)cc2[N+](=O)[O-])CC1)c1ccco1	2523	.	-9	6	.	.	.
O=C(NCc1ccc(CNC(=O)c2ccco2)cc1)c1ccco1	5353	4.4	-6	-2	-7	-3	0
C=CC[C@@H](CC(=O)NCCO)C(=O)N[C@H](COC(=O)[C@H](CC=C)CC(=O)OC(C)(C)C)Cc1c[nH]c2ccccc12	3798	5.6	13	.	-3	-14	-3
COc1ccc(N(Cc2ccccc2)S(=O)(=O)c2cccc(C(=O)Nc3ccccn3)c2)cc1	4323	-3.9	-20	.	-5	-12	-9
CN(CC(=O)Nc1ccc(Cl)c(Cl)c1)C(=O)CN1C(=O)NC2(CCCC2)C1=O	6641	0.0	-9	4	10	6	2
Cc1cccc(NC(=S)NCc2ccc3[nH]c4c(c3c2)CCCC4)c1	5666	6.2	-10	-5	-16	2	3
COc1ccc(OCC(=O)NNC(=O)c2cccc(C)c2)cc1	2915	1.1	9	-2	6	10	4
O=C(Nc1nccs1)[C@@H]1CCCN1C(=O)c1cccs1	4684	0.4	-14	-1	12	9	7
CCc1ccccc1NC(=O)CSc1nc2n[nH]c(C)c2c(=N)n1-c1cccc(OC)c1	8075	5.9	-22	-23	5	7	4
N/C(=N\OS(=O)(=O)c1ccccc1)c1cccnc1	9570	0.6	-9	.	5	14	9
O=C(C1CCN(CCc2ccccc2)CC1)N1CCOCC1	3628	1.2	-4	.	-5	-8	2
Cc1ccc(C(=O)c2c3ccc([N+](=O)[O-])cc3[n+]([O-])n2CCCN)cc1	4094	.	-9	0	.	.	.
O=[N+]([O-])c1ccc2c(c1)C(N1CCOCC1)/C(=C/COc1ccc(F)cc1)O2 (stereo not given)	2896	12	-13	-6	10	-5	-3
CCCN(CC(=O)Nc1ccccc1C)C(=O)c1sc2ccccc2c1Cl	8999	3.8	-16	.	-1	16	6
O=C(NCc1ccc(F)cc1)c1c2c(nc3ccccc13)CCN(Cc1ccccc1)C2	3263	2.8	-25	-8	-1	-7	6
C=CCn1c(-c2csc3ccccc23)n[nH]c1=S	12660	7.2	.	4	-7	9	3
CCOC(=O)c1cnc2sc3c(n2c1=O)CCCC3	2015	6.8	-23	.	8	.	.
CC1(C)Cc2ccccc2C(N/N=C/c2cccc(F)c2)=N1	9351	.	-14	-17	.	.	.
CCCn1c(=O)c(C(=O)NNS(=O)(=O)c2ccc(C)cc2)c(O)c2ccccc21	2465	37	-6	-15	45	-3	6
Cc1cccc(Cl)c1OCCCN1CCOCC1	4050	2.4	-74	-6	4	5	3
CN(C)S(=O)(=O)c1ccc(C(=O)NCC(C)(C)N2CCOCC2)cc1	4078	3.5	-18	-1	14	2	3
NC(Cc1ccccc1)Cc1ccccc1	3338	3.5	-36	-6	5	4	-2
O=C(CCc1ccccc1)Nc1nncs1	3157	4.5	5	-1	6	11	4
Cc1c(C)c2ccc(OCC(=O)N3C[C@H]4C[C@@H](C3)c3cccc(=O)n3C4)c(C)c2oc1=O	5169	0.8	-5	6	3	.	.
CCC1COCCS(=O)(=O)N1Cc1ccc(Cl)cc1 (stereo not given)	2901	6.2	-3	18	-1	10	5

Reprinted at random: 2 entries already listed
SMILES	Bead autofluor	RN4220 kill	PrP 5UTR inh	BJeLR viability	ugtP null kill	Mtb hypoxia inh	Mtb hypoxia inh growth
Cc1ccc(C(=O)c2c3ccc([N+](=O)[O-])cc3[n+]([O-])n2CCCN)cc1	4094	.	-9	0	.	.	.
CN(C)S(=O)(=O)c1ccc(C(=O)NCC(C)(C)N2CCOCC2)cc1	4078	3.5	-18	-1	14	2	3

Next part
SMILES	Bead autofluor	RN4220 kill	PrP 5UTR inh	BJeLR viability	ugtP null kill	Mtb hypoxia inh	Mtb hypoxia inh growth
CCc1ccc(NC(=O)C2CCCN(S(=O)(=O)c3cccnc3)C2)cc1 (stereo not given)	5364	-2.3	-23	6	-2	-11	-3
COc1ccc(C(=O)CSc2nnc(C(CO)NC(=O)c3ccc(OC)cc3)n2C)cc1 (stereo not given)	3353	7.8	-3	-3	5	2	-3
O=C(COC(=O)CNC(=O)c1cccc([N+](=O)[O-])c1)Nc1nc2ccccc2s1	2187	1.3	-20	4	-2	16	-3
S=C(CN1CCCC1=S)N1CCOCC1	3871	3.1	-7	-3	2	-2	0
Cc1ccc(NC2CCCN(C(=O)c3ccc4nccnc4c3)C2)cc1C (stereo not given)	5556	1.9	-9	-4	2	4	-4
CCCn1c(NCc2ccco2)nc2ccccc21	10608	2.6	-27	1	10	7	2
COc1ccc(Cl)cc1NC(=S)N1CC(C)OC(C)C1 (stereo not given)	?	2.0	-16	1	0	7	2
CCN(CC)CCNC(=S)Nc1ccc(F)cc1	4379	2.2	-26	13	1	-3	-4
CCN1C(=O)[C@@H]2[C@@H](c3ccc(-c4cccc(Cl)c4)cc3)N3CCC[C@@]3(C(=O)OC)[C@@H]2C1=O	3960	.	-26	5	.	.	.
CCOC(=O)c1c(-c2ccccc2)csc1NC(=O)CSc1nc(N)cc(N)n1	2244	2.2	-31	-19	12	8	4
Cc1nc(-c2ccccc2)nc2sc(C(=O)c3ccc(F)cc3)c(N)c12	?	-0.6	-7	-9	-32	-3	2
